Polio RdRp inh – poliovirus RNA polymerase inhibition. P03300. AID 588519. poliovirus polymerase elongation, fluorescence polarization; active compounds read low. 150,000 compounds, 0.66% hits. % elongation, % (compound at 16.7 µg/mL); in the data active = % elongation below about 90%; note: some results filed as inactive read as strong as hits
Target sequence (P03300 1749-2209 limits assumed): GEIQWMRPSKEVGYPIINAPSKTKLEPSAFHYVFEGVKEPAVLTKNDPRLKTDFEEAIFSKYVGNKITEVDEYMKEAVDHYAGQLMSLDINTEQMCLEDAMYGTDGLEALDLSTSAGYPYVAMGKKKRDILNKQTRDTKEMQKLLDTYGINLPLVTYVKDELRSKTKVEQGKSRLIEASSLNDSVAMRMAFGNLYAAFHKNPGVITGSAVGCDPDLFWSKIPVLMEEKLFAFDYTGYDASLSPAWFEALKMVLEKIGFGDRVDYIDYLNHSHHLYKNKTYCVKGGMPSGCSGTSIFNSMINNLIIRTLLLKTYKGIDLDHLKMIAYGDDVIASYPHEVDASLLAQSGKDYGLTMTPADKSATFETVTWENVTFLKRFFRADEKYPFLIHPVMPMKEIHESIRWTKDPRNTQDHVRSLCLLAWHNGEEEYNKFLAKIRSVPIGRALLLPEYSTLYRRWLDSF
Mtb MenB inh – inhibitors of Mycobacterium tuberculosis MenB enzyme; 100,000 compounds, 0.43% hits; inhibition, %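 (about 12 µg/mL by stock and volumes)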; AID 540299; MenB enzyme assay, absorbance read-out; some hits fall short of the stated cut; P9WNP5;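 active = mean of two replicates above 30%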;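 note: 0% = no compound and 100% = wells with inactive enzyme; the first replicate is given; strong numbers were not always called active; inactives centre near -10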
MbtI inh – blocks the Mycobacterium tuberculosis siderophore enzyme MbtI | inhibition, %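 (about 17 µg/mL by stock and volumes)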 | AID 493033 | 100,000 compounds, 0.89% hits | purified MbtI enzyme, fluorescence intensity read-out | P9WFX0;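 active = above 50% in both replicates, above 80% if mildly self-fluorescent; inactive = the rest, strongly fluorescent compounds included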;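 note: 0% = mean of negative and 100% = mean of positive controls; one replicate is shown; some compounds called inactive have numbers as strong as hits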
Target sequence (P9WFX0 whole entry, looked up): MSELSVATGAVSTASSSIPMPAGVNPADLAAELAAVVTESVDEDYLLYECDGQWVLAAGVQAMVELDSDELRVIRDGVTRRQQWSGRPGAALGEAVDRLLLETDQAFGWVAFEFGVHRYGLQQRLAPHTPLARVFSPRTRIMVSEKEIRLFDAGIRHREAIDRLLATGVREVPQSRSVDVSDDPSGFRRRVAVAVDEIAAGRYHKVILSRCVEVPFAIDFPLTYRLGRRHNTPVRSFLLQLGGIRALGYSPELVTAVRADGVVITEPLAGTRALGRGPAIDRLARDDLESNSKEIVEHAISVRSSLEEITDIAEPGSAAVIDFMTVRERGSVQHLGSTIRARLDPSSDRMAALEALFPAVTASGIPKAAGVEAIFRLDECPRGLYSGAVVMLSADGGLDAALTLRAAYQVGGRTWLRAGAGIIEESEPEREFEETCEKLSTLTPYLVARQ
Polio RdRp inh intensity – further read-out of Polio RdRp inh, marked with its call; % elongation; measured here: total intensity read-out; formula for this scale not given here;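 total fluorescence in place of polarization; lower means less elongation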
Starred values were filed as active, the others as inactive; i = inactive; . = not tested or not shown.

SMILES	Polio RdRp inh	Polio RdRp inh intensity	Mtb MenB inh	MbtI inh
CC12CCC(=O)N1C(C(=O)NC1CCCc3ccccc31)CS2 (stereo unspecified)	104	101	8	17
N#CC(C(=O)Nc1ccccc1)=C1CCCC1	103	107	-13	.
COCCNC(=O)c1cc2ccccc2oc1=O	101	106	-6	102
COC(=O)CSC1=C(C#N)C(c2ccco2)C(C(=O)Nc2ccccc2)=C(C)N1 (stereo unspecified)	104	99	-1	-20
O=C(CSc1nnc(-c2ccccc2)o1)c1ccccc1	103	100	-9	.
O=C(Cn1c(=O)oc2ccccc21)Oc1ccc2c(c1)OCO2	103	103	-29	-7
Cn1c(=O)c2cc(NC(=O)c3ccccc3F)c(=O)oc2n(C)c1=O	112	167	-1	i
FC(F)n1c(=S)n(C(F)F)c2ccccc21	102	108	-10	-4
COc1ccc(N/C(=N/c2nc(C)cc(=O)[nH]2)NC(=O)c2cccc(Cl)c2)cc1	105	101	-26	1
Cc1ccc2nc(SCC(=O)N3CCCc4ccccc43)nc(=O)n2c1	104	109	-6	12
COc1ccc(C(=O)Nc2ccccc2)cc1	101	104	28	-1
CCOc1ccc2oc(C(=O)N3CCCCC3C(N)=O)c(C)c2c1 (stereo unspecified)	106	107	-16	20

A section from further up, as a working copy:
SMILES	Polio RdRp inh	Polio RdRp inh intensity	Mtb MenB inh	MbtI inh
CC12CCC(=O)N1C(C(=O)NC1CCCc3ccccc31)CS2 (stereo unspecified)	104	101	8	17
N#CC(C(=O)Nc1ccccc1)=C1CCCC1	103	107	-13	.
COCCNC(=O)c1cc2ccccc2oc1=O	101	106	-6	102
COC(=O)CSC1=C(C#N)C(c2ccco2)C(C(=O)Nc2ccccc2)=C(C)N1 (stereo unspecified)	104	99	-1	-20
O=C(CSc1nnc(-c2ccccc2)o1)c1ccccc1	103	100	-9	.

Next part.
SMILES	Polio RdRp inh	Polio RdRp inh intensity	Mtb MenB inh	MbtI inh
COCCNS(=O)(=O)c1cccc(C(=O)Nc2ccccc2)c1	101	101	-20	1
CN(C)C(=O)Oc1ccnc(SCc2c(F)cccc2Cl)n1	103	100	-9	-9
c1ccc2oc(Cc3nc4ccccc4s3)nc2c1	100	95	-12	-3
O=c1ccc2cc3c([nH]c4ccc(Br)cc43)oc-2c1O	86	172	-119	97*
CC(C)(C)NC(=O)Cc1ccc(Br)cc1	101	104	-1	.
O=c1c2ccccc2c(/C=N/c2ncn[nH]2)c(O)n1-c1cccc(C(F)(F)F)c1	107	111	-29	8
C[C@H](NS(=O)(=O)c1cccc2nsnc12)C(=O)Nc1ccc2c(c1)CCC2	101	110	1	-2
NC(=NC(=O)c1ccc(OCC(F)(F)F)nc1)c1ccc(Cl)cc1	102	103	-7	-7
S=c1[nH]c(=S)c2cnc(N3CCN(c4ccccc4)CC3)nc2[nH]1	105	105	-51	15
Cc1[nH]c2ccccc2c1CCNC(=O)NC(=O)c1ccc(C(F)(F)F)cc1	98	97	-14	.
CCCCOn1c(C)c(C(=O)OCC)c2c3no[n+]([O-])c3ccc21	102	101	12	-3
Cc1cc(C)c2c(N)c(C(=O)N3CCC(Cc4ccccc4)CC3)sc2n1	100	101	.	-28
CCOc1ccc(OCc2ccc(C(=O)NC(C)C)o2)cc1	101	102	-1	-3
Cc1nnc(SCCn2c(C)csc2=O)n1C	101	107	-10	18
CCOC(=O)N1CCN(CC(=O)c2ccc3c(c2)CCN3)CC1	100	101	-26	16
CSc1nc2nc3c(cc2c(=O)[nH]1)C(O)Oc1ccc(C)cc1-3 (stereo unspecified)	101	108	-32	-71
COc1ccc(CN(C)C(C)C(=O)Nc2ccc3c(c2)OCCO3)c(OC)c1 (stereo unspecified)	103	105	-28	-6
c1ccc(Nc2nnc(CSc3nc4ccccc4s3)s2)cc1	100	104	10	-6
CSc1ncc2c(n1)-c1ccccc1N(C)S2(=O)=O	101	101	0	65
CCn1cnc2cc(NCc3ccccn3)ccc21	102	109	-7	-5
Cc1cc(C)nc(/N=C(/N)N2N=CCC2c2ccccc2)n1 (stereo unspecified)	104	101	6	.
Cc1[nH]c2ccccc2c1C(=O)COC(=O)Cn1c(=O)oc2ccccc21	108	114	-27	-2
CN1CCC(OC(=O)c2cc3cc(Br)ccc3oc2=O)CC1	109	104	-8	.
N#CC(c1ccccc1)c1cn2cc(Cl)ccc2n1 (stereo unspecified)	106	100	-31	-89
O=C(Oc1ccc2c(c1)CCCC2)c1cccs1	102	102	-2	-13
COc1cc(C(=O)NC(=S)NC(N)=O)cc(OC)c1OC	105	107	-3	4
COCCN1C(c2ccccc2)=CC(=C2C(=O)N(C)C(=O)N(C)C2=O)C2=C1CCCC2	99	100	-27	4
CCOC(=O)C1=C(Nc2ccc(Cl)cc2)C(=O)N(C(C)(C)C)C1	102	99	-14	-2
O=C(NNC1=NCCC1)c1c[nH]c2ccccc12	102	107	-20	-4
Cc1ccc(CNC(=O)C2CCN(S(=O)(=O)c3c(C)nn(C)c3C)CC2)cc1	105	107	-19	-1
COc1ccc(C2OC(=O)CC2C(=O)NCc2ccc(Cl)cc2)cc1OC (stereo unspecified)	104	98	2	4
COc1ccc(C2CCCN2C(=O)Nc2ccc(C)c(C)c2)cc1OC (stereo unspecified)	100	99	5	-3
COC(=O)/C=C1\SC(C)C(=O)N1CC(=O)Nc1ccccc1C(F)(F)F (stereo unspecified)	106	104	-4	4
O=c1[nH]c2c(s1)C=Nc1cc3ccccc3cc1N2	55	162	-33	7
COc1cccc(CN2C(=O)c3ccccc3C2C(=O)NCC2CCCO2)c1 (stereo unspecified)	100	104	5	-1
O=C(CSCc1ccccc1)NC1CC2CCC1C2 (stereo unspecified)	100	101	1	-6
COC(=O)c1cc(S(=O)(=O)N2CCCCC2)c[nH]1	100	97	-3	-13
O=c1[nH]snc1N1CCCCC1	64*	62*	13	43
COc1ccccc1C1C2=C(CC(C)(C)CC2=O)Nc2nc3ccccc3n21 (stereo unspecified)	103	103	-3	-222
CCOc1ccccc1NC(=O)CSc1ccc(-c2cccs2)nn1	98	95	-15	3
CCN(C(=O)c1cc2cc(Br)cc(OC)c2oc1=O)C1CCCCC1	110	107	-10	.
O=C(Nc1cccc(NC(=O)C2CC3CCCC(C2)C3=O)n1)C1CC2CCCC(C1)C2=O (stereo unspecified)	98	102	-13	-9
COc1ccc(-c2noc(CC(=O)N(C)Cc3ccccc3)n2)cc1	105	105	-11	-4
CCc1nc2cccnc2n1-c1ccc(C(=O)N2CCCCC2)cc1	104	108	-15	7
O=C(c1cnn(C(=O)CSc2nc3ccccc3o2)c1)c1ccccc1O	106	105	-3	-7
NC(=O)C1CCN(C(=O)c2c(F)cccc2Cl)CC1	104	108	.	-11
COC(=O)C1=COC(C)C2CN3CCc4c([nH]c5ccccc45)C3CC12 (stereo unspecified)	97	112	-8	7
CC(Oc1ccccc1)C(=O)NCCc1ccc(S(N)(=O)=O)cc1 (stereo unspecified)	106	112	-6	.
c1ccc(CSCc2cn3ccccc3n2)cc1	102	102	6	.
CCCCC(=O)N(Cc1ccc(-c2ccccc2-c2nn[nH]n2)cc1)[C@H](C(=O)O)C(C)C	100	102	3	-2
COc1ccc(-c2noc(-c3cc4ccccc4oc3=Nc3ccc(NC(C)=O)cc3)n2)cc1	100	102	7	-2
C(=N\n1cnnc1)/c1cccs1	101	91	-12	21
O=C(Nc1nc2ccccc2s1)C1CC(=O)N(c2ccccc2)C1 (stereo unspecified)	105	112	-12	.
O=C(Cn1c(SCc2cccc(F)c2)nc2ccncc21)NCc1ccco1	100	102	10	15
O=C(CCCc1ccccc1)NCCc1cn2ccccc2n1	102	104	10	102
Clc1ccc(CN2COc3ccc(Cl)cc3C2)cc1	101	104	-8	.
O=C(NC1CCCc2ccccc21)C1c2ccccc2Oc2ccccc21 (stereo unspecified)	103	104	-20	0
CS(=O)(=O)N1CCC(C(=O)N2CCN(C/C=C/c3ccccc3)CC2)CC1	102	99	-13	-2
CCOc1ccc(N(C)C(=O)[C@H]2[C@@H]3C[C@@H]4[C@H]2C(=O)O[C@@H]4C3)cc1	101	102	-21	-19
COc1ccc(CCNC(=O)c2ccc(C3SCC(=O)N3Cc3ccccc3)cc2)cc1OC (stereo unspecified)	101	106	-9	14

5 of these compounds in a different format.
canonical_smiles,Polio RdRp inh,Polio RdRp inh intensity,Mtb MenB inh,MbtI inh
COc1ccc(-c2noc(-c3cc4ccccc4oc3=Nc3ccc(NC(C)=O)cc3)n2)cc1,100,102,7,-2
C(=N\n1cnnc1)/c1cccs1,101,91,-12,21
O=C(Nc1nc2ccccc2s1)C1CC(=O)N(c2ccccc2)C1 (stereo unspecified),105,112,-12,.
O=C(Cn1c(SCc2cccc(F)c2)nc2ccncc21)NCc1ccco1,100,102,10,15
O=C(CCCc1ccccc1)NCCc1cn2ccccc2n1,102,104,10,102

More entries.
SMILES	Polio RdRp inh	Polio RdRp inh intensity	Mtb MenB inh	MbtI inh
CCn1cnc2c(=O)oc3ccc(S(=O)(=O)NCc4ccccc4)cc3c21	105	96	-24	-8
COc1ccc(OCC(=O)OCc2c(F)cccc2Cl)cc1	100	95	.	-4
Cc1ccc(C(=O)NCC(=O)O)o1	100	102	21	-1
CCn1c(COc2ccccc2C(N)=O)nc2ccccc21	100	106	2	-6
CCOC(=O)C1C(c2ccccc2)NC(=S)NC1(O)C(F)(F)F (stereo unspecified)	101	105	-11	37
CC(C)(C)C1=CC(=O)c2c(ccc(C(C)(C)C)c2O)C1=O	98	94	-18	10
NS(=O)(=O)c1ccc(NC(=O)C(Sc2ccccc2)c2ccccc2)cc1 (stereo unspecified)	104	104	-12	.
O=C(O)CNC(=O)c1ccc(N2C(=O)c3ccccc3C2=O)cc1	100	102	1	-4
O=C(O)/C=C\C(=O)NC1CCN(Cc2ccccc2)CC1	102	103	-5	2
COP1(=S)C2=C(N3CCOCC3)CC(C)(C)CC2=Nc2c1c(C)nn2-c1ccccc1 (stereo unspecified)	106	112	-48	39
Cc1oc(-c2ccc(Cl)cc2)cc1C(=O)Nc1ccccc1	98	99	13	4
O=C(OCc1cn2cc(Cl)ccc2n1)c1cccc(-n2cnnn2)c1	99	106	-19	10
O=C(OC1CCCCC1)C1CCCN1S(=O)(=O)c1cccc2nsnc12 (stereo unspecified)	99	102	-20	4
CCOc1ccc(CCNC(=O)C2CC(=O)OC2c2ccc(OC)c(OC)c2)cc1 (stereo unspecified)	105	101	-2	-1
O=C(NCc1ccccc1F)c1cc(=O)c2ccccc2o1	104	111	1	-5
COC(=O)c1ccc(CN(Cc2ccc(C(=O)OC)o2)C(C)(C)C)o1	101	108	-16	-29
COc1ccc(NC(=O)c2snnc2C)cc1	104	102	-5	8
O=C(Nc1cc(Cl)cc(Cl)c1)Nc1cc(-c2ccccc2)[nH]n1	105	109	-8	-3
O=c1[nH]c2cc3c(cc2cc1C(c1nnnn1C1CCCC1)N1CCc2ccccc21)OCCO3 (stereo unspecified)	102	108	-41	-40
O=C(c1cccs1)c1no[n+]([O-])c1C(=O)c1cccs1	95	90	-16	60
O=C(O)c1cc(=O)[nH]c2ccc(S(=O)(=O)Nc3ccc(F)cc3)cc12	99	106	3	5
COc1ccccc1NCC(F)(F)F	106	106	-13	-6
CN(Cc1ccccc1)C(=O)c1cccs1	105	111	-6	.
CC(C)n1cnc2cc(NCc3ccc(Cl)cc3)ccc21	100	102	8	27
O=C(/C=C/c1ccco1)NC(=S)Nc1ccccc1O	101	111	-10	3
CCCSc1nnc(Cn2c(=O)sc3ccccc32)n1-c1ccccc1C	101	102	-31	2
CN1C(=O)C(=C2C=C(c3ccccc3)N(Cc3ccco3)C3=C2CCCC3)C(=O)N(C)C1=O	96	107	3	1
COc1ccc(-c2cc(C(=O)OCCN3CCOCC3)c3ccccc3n2)cc1	101	104	-8	-12
Cc1cc(NCCC(C)C)n2c(nc3ccccc32)c1C#N	101	102	-20	15
CCOC(=O)c1sc(/N=C/c2ccc(O)cc2O)cc1C	149	150	-71	13
CCOc1ccc2nc(NC(=O)c3ccccc3Cl)sc2c1	104	105	.	50
O=C(O)c1ccc2ncccc2c1	101	104	5	-3
CCCC(=O)Nc1nncs1	100	101	-27	-11
O=C(N1CCN=C1c1ccccc1)N1c2ccccc2Sc2ccccc21	99	99	-22	-2
C#CCN1C(=O)S/C(=C\c2ccc(OCc3ccc(C(=O)O)o3)cc2)C1=O	100	102	4	0
CC(C)N(CCC#N)C(=O)Nc1ccc(F)cc1	101	104	-1	-1
CC(C)C(OC(=O)c1ccc2c(c1)NC(=O)C(C)(C)O2)C(=O)NC1CCCC1 (stereo unspecified)	101	114	18	22
CNC(=O)c1ccccc1NC(=O)c1cccc(S(=O)(=O)N2CCC(C)CC2)c1	103	104	-17	-7
COc1ccc2sc(C)[n+](CCO)c2c1	103	103	-19	35
CC1CCN(CCNC(=O)C2CCCN(S(=O)(=O)c3cccc4nsnc34)C2)CC1 (stereo unspecified)	102	107	-18	13
O=C(COC(=O)C1(c2ccccc2F)CCCC1)NC1CC1	102	104	.	-13
CCc1ccc(Nc2nc3ccccc3c3nncn23)cc1	99	102	-9	-5
NC(=O)c1nnc(Cc2ccc(Cl)cc2Cl)o1	104	103	-8	4

Screening data from PubChem BioAssay.

This is a random part of the collection; any-hit rate near 2%.
